Screens: PubChem BioAssay, Southern Research Specialized Biocontainment Screening Center
Mtb betalactam: beta-lactam sensitization of Mtb H37Rv, H37Rv; M. tuberculosis H37Rv growth with meropenem, percent inhibition; hits of this screen are not shown here; inhibition, % at 25 µM; actives 0.27% (n = 330,000);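 active = about 74% or more and at least 40 points above the plate without the antibiotic, then above 30% in a dose series; inconclusive = first-round hits that could not be retested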;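 also: growth measured after seven days incubation then overnight dye step; 0% = bacteria only wells and 100% = bacteria with antibiotic; twin plates without the antibiotic show which effects depend on it; some results filed as inactive read as strong as hits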
An asterisk follows results filed as active; ? = inconclusive. Some of the compounds tested; count on the stated rates, not on these rows.

SMILES	Mtb betalactam
Cc1cc(=O)oc2c3c(cc(OCC(=O)NCCN4CCOCC4)c12)OC(C)(C)CC3	-3
COc1ccccc1C(=O)NCCC(=O)NCc1ccncc1	-6
O=C(C[C@@H]1C/C=C\CCC(=O)OC[C@@H]2CCCN2C1=O)N[C@@H](CO)Cc1ccccc1	-8
O=C1C=C(c2cccc(CO)c2)C[C@@H](c2ccc(Cl)cc2)C1	11
O=C(O)c1ccccc1C(=O)NCCCCCCNC(=O)c1ccccc1C(=O)O	-4
O=C1CN(C(=O)CSc2ccccn2)c2ccccc2N1	6
COc1ccc(N2CCN(C(=O)COC(=O)c3ccc(-n4nc(C)cc4C)cc3)CC2)cc1	77
Cc1ccccc1Nc1nc(N)nc(COC(=O)c2ccc([N+](=O)[O-])o2)n1	96
CN1C2C(Br)CCCCN2c2ccc(F)cc2S1(=O)=O (stereo not given)	-8
COc1cccc(CNC(=O)CCS(=O)(=O)c2ccccc2Cl)c1	-10
N#Cc1cccc(NC(=O)CCc2ccc(S(=O)(=O)N3CCOCC3)cc2)c1	-2
CCOC(=O)C1CCN(C(=O)C(CCSC)NC(=O)COc2ccccc2)CC1 (stereo not given)	-9
Cc1nn(C2CCS(=O)(=O)C2)c(C)c1CN(C)C(=O)c1ccc(Cl)cc1 (stereo not given)	-2
CCn1cnc2cc(NC(=O)c3ccc(C)cc3)ccc21	-15
COc1ccc(N(CC(=O)NCc2cccs2)S(=O)(=O)c2ccc(F)cc2)cc1	-1
CC1=CC(=O)OC2CC3OC4C[C@@H](C)C5OC6CC7O[C@]8(C)C/C=C\C9OC%10CC%11OC(CC(C)C%12OCCO%12)CC(O)[C@]%11(C)OC%10CC9OC8C[C@]7(C)O[C@]6(C)CCC5OC4C[C@]3(C)OC12 (stereo not given in full)	11
O=C(NCc1ccccc1Br)c1ccc2c(c1)OCCO2	1
COc1ccc(S(=O)(=O)N(CC(=O)NN=C2CCN(C)CC2)c2cc(Cl)ccc2OC)cc1OC	-6
C=C1CC[C@H](O)C/C1=C/C=C1\CCC[C@]2(C)[C@@H]([C@H](C)/C=C/[C@H](C)C(C)C)CC[C@@H]12	5
COc1ccccc1C(C)Nc1ccc(S(=O)(=O)N2CCN(C)CC2)cc1[N+](=O)[O-] (stereo not given)	3
Cc1cccc(C(=O)NCC(=O)OCc2nc(N)nc(Nc3ccccc3C)n2)c1	-4
CC(C)CC1NC(=O)N(CC(=O)Nc2ccc3c(c2)OCCO3)C1=O (stereo not given)	-7
C[C@H](CO)N1C[C@H](C)[C@@H](CN(C)C(=O)Nc2ccc(C(F)(F)F)cc2)Oc2ccc(NC(=O)NC3CCCCC3)cc2C1=O	2
Cc1c(NC(=O)COc2ccc(C(C)C)cc2)c(=O)n(-c2ccccc2)n1C	?
CC1(c2ccccc2)NC(=O)N(CC(=O)Nc2ccc(N3CCOCC3)cc2)C1=O (stereo not given)	-4
O=C(COc1ccc(F)cc1Br)NCCCN1CCCC1=O	-1
O=C(O)c1ccc(C=NNC(=O)c2ccccc2NS(=O)(=O)c2cccs2)cc1	4
COc1ccc(S(=O)(=O)N2CCN(C(=O)c3cc(C)oc3C)CC2)cc1OC	-7
C[C@H]1CN([C@@H](C)CO)C(=O)Cc2cc(NC(=O)CCC(F)(F)F)ccc2O[C@H]1CN(C)CC1CC1	8
COC(=O)C1=C(c2ccc3ccccc3c2)C[C@@H]2CC[C@H]1N2C(=O)NC(C)C	-1
O=C(Nc1ccc(F)cc1)C1CCCN(C2=NS(=O)(=O)c3ccccc32)C1 (stereo not given)	-5
CCOc1cc(Br)cc(/C=N/NC(=O)c2cccnc2)c1O	-6
COC(=O)C1=C(c2ccc(-c3ccccc3)c(F)c2)C[C@@H]2CC[C@H]1N2C(=O)NC1CC1	-6
CC(C)(O)[C@H](O)Cc1cc2ccc(=O)oc2cc1O[C@@H]1O[C@H](CO)[C@@H](O)[C@H](O)[C@H]1O	2
COC(=O)[C@@H]1C(OC(=O)c2ccccc2)CC2CCC1N2C (stereo not given in full)	-5
Cn1c(CCC(=O)O)nc2cc(S(=O)(=O)N3CCCCC3)ccc21	-11
Cc1ccc(N(CC(=O)NC2CC2)S(=O)(=O)c2ccccc2)c(C)c1	-6
O=C(NN=Cc1ccc(F)cc1)c1ccccc1NS(=O)(=O)c1cccs1	-1
O=C(COC(=O)CC1CC2CCC1C2)Nc1ccccc1Cl (stereo not given)	-3
C[C@H](CO)N1C[C@H](C)[C@@H](CN(C)C(=O)Nc2ccc3c(c2)OCO3)Oc2ccc(NC(=O)NC3CCCCC3)cc2C1=O	4
CC1CC(C)CN(C(=O)c2ccc3ncsc3c2)C1 (stereo not given)	-2
COc1ccc(Cl)cc1C(=O)NNC(=O)COC(=O)c1cccs1	-1
Cc1ccc(NC(=O)c2ccc3c(c2)N(CC(=O)NC(C)C)C(=O)C(C)(C)O3)cc1	-7
CCOc1ccccc1N1CC(C(=O)N(CC)C2CCS(=O)(=O)C2)CC1=O (stereo not given)	-3
O=S(=O)(Nc1ccc(-n2cnnn2)cc1)c1ccccc1F	3
COc1cc(CC(=O)N(CC(C)C)C2CCS(=O)(=O)C2)cc(OC)c1OC (stereo not given)	-12
COc1cccc(NC(=O)Nc2cc(C)on2)c1	-3
O=C(CN1C(=O)NC2(CCCC2)C1=O)NCc1ccco1	-6
O=C1CCC(C(=O)OCc2nnc(-c3ccc(Br)cc3)o2)=NN1	6
CCc1ccc([C@@H]2CC=C(C(=O)O)[C@H](c3ccc(C)cc3)N2S(=O)(=O)c2ccc(C)cc2)cc1	4
O=C(CSc1n[nH]c(=O)n1C1CC1)c1c[nH]c2ccccc12	-6
CN(c1ccccc1)S(=O)(=O)c1ccc(C(=O)NCc2ccccc2F)cc1	-7
Cc1ccc2c(c1)[C@@H]1[C@H](CO2)[C@H](c2ccccc2)[C@]2(C)C(=O)N[C@H](C)C(=O)N12	-5
CC(=O)Nc1ccc(S(=O)(=O)NC2=NCN(c3cccc([N+](=O)[O-])c3)CN2)cc1	-8
O=C(NCc1ccccc1)C(c1ccc(Cl)cc1)N(C(=O)c1csnn1)C1CC1 (stereo not given)	-5
COC(C(=O)Nc1ccnn1C1CCN(Cc2ccccn2)CC1)c1ccccc1 (stereo not given)	-2
O=C(CN1C(=O)c2ccccc2S1(=O)=O)Nc1cccc(S(=O)(=O)N2CCCCC2)c1	41
COc1ccc(-c2c(-c3ccccc3)n(C)c3ccccc23)cc1	0
Cc1ccc(S(=O)(=O)N2CCN(Cc3cc4c(cc3Br)OCCO4)CC2)cc1	-1
O=C(c1cc(C2CC2)nn1-c1ccccc1)N1CCN(Cc2ccc(Cl)cc2)CC1	15

Next section:
SMILES	Mtb betalactam
Cc1ccc(S(=O)(=O)NCCCNS(=O)(=O)c2ccccc2)cc1	-5
Cc1ccc(CSc2nnc(-c3cccc4ccccc34)o2)cc1	8
COc1ccc(C2=NOC(Cn3nc(-c4ccccc4)cc3C(=O)NCc3ccc(C)cc3)C2)cc1 (stereo not given)	4
C[C@H]1CN([C@@H](C)CO)C(=O)c2cccc(NC(=O)C3CC3)c2O[C@H]1CN(C)Cc1ccc(C(F)(F)F)cc1	-4
CCc1cccc(NC(=O)CC2SC(N3CCCC3)=NC2=O)c1 (stereo not given)	-3
CCN(C[C@H]1N[C@@](Cc2ccccc2)(C(=O)OC)[C@H]2C(=O)N(C)C(=O)[C@@H]12)C(=O)Nc1ccc(C(F)(F)F)cc1	4
Cc1ccc(C(=O)NCC(=O)NCC(c2cccs2)N(C)C)cc1C (stereo not given)	6
O=C(Cn1ccc(NC(=O)OCc2ccccc2)nc1=O)NCCCn1ccnc1	-9
Nc1c(Cl)cc(-c2cn(CCC(=O)O)c(-c3ccc(Cl)nc3)n2)cc1Cl	0
CCC(CO)Oc1cc(NCc2ccc(O)cc2)c2ncn(C(C)C)c2c1 (stereo not given)	2
CC(OC(=O)Cn1cc(C(F)(F)F)ccc1=O)C(=O)NC(C)c1ccc(Cl)cc1Cl (stereo not given)	1
COc1ccccc1NC(=O)c1ccc(NC(=O)COC(=O)c2cccnc2Cl)cc1	1
CCCCCCCCOc1ccc(C(=O)O)cc1	22
Cc1cc(C)c(N)cc1C	1
CC(C)(C)NC(=O)c1cccc(NC(=O)c2ccc3c(c2)C(=O)N(C(C)(C)C)C3=O)c1	-3
COc1cc(OC)cc(C(=O)NCC(=O)NCC(c2ccco2)N2CCCCC2)c1 (stereo not given)	-11
CCCn1c(N)c(C(=O)COC(=O)c2cccc(S(=O)(=O)N3CCOCC3)c2)c(=O)[nH]c1=O	0
O=C(COC(=O)CCC(=O)N1CCOCC1)Nc1ccc(Br)cc1Br	-9
C/C=C/c1ccc(OCC(=O)NNC(=O)CN(C)S(=O)(=O)c2ccc(C)cc2)c(OC)c1	4
CCCCc1cc(=O)oc2c(C)c(OCC(=O)N3CCC(C(N)=O)CC3)ccc12	0
Cn1c(N)c(C(=O)COC(=O)/C=C/c2ccc(Cl)c(Cl)c2)c(=O)n(C)c1=O	2
CC(CC(=O)Nc1nccs1)c1ccccc1 (stereo not given)	3
CC(C)NC(=O)N(C)C[C@H]1Oc2c(NC(=O)Cc3ccccc3)cccc2C(=O)N([C@H](C)CO)C[C@@H]1C	6
Cc1nnc(NC(=O)c2ccc(S(=O)(=O)N(C)c3ccccc3)cc2)s1	-3
O=C(NCc1ccccc1Cl)[C@@H]1CCCN1S(=O)(=O)c1ccc(Cl)cc1	-4
Cc1ccc(S(=O)(=O)N2CCN(CC(=O)N3CCCC3)CC2)c(C)c1	-6
C=CC[C@@H](CC(=O)NCCO)C(=O)N[C@H](C)COC(=O)[C@@H](CC=C)Cc1ccc(F)cc1	2
COc1ccc(NC(=O)c2ccccc2N(Cc2ccccc2)S(C)(=O)=O)c(OC)c1	-3
COc1ccc2nc(SCC(=O)NC3CC3)c(C#N)cc2c1	-1
Cc1cc(C(C)(C)C)c(OC(=O)[C@@H]2OC(c3ccccc3)=C[C@H]2c2ccccc2)c(C(C)(C)C)c1	-8
CS(=O)(=O)Cc1ccc(C(=O)NNC(=O)c2cc(-c3ccccc3)n[nH]2)cc1	4
CC(Sc1nnc(COc2ccc(Cl)cc2)n1Cc1ccco1)C(=O)N1CCNC1=O (stereo not given)	-4
O=C(CSc1nc2ccccc2c(=O)n1-c1ccccc1F)NC1CCS(=O)(=O)C1 (stereo not given)	1
COc1cc(S(=O)(=O)N2CCN(Cc3cccs3)CC2)ccc1NC(C)=O	-8
COc1ccccc1NC(=O)C(C)Sc1nnc2ccccn12 (stereo not given)	-2
COc1cccc([C@@H]2CC=C(C(=O)O)[C@H](c3ccc(Cl)cc3)N2S(=O)(=O)c2ccc(C)cc2)c1	6
CC(=O)c1cccc(NC(=O)C(C)OC(=O)c2cccc(S(=O)(=O)N3CCN(C)CC3)c2)c1 (stereo not given)	-4
COc1ccc(S(=O)(=O)N(C)C[C@H]2Oc3c(NS(=O)(=O)c4cn(C)cn4)cccc3C(=O)N([C@H](C)CO)C[C@@H]2C)cc1	3
O=C(Nc1ccccc1N1CCCCC1)c1ccc(-c2cc(Cl)ccc2Cl)o1	39
CC(C)[C@H](NC(=O)c1cccc(S(=O)(=O)N2CCOCC2)c1)C(=O)NCc1ccc(F)cc1	-10
Cc1ccc(NC(=O)c2nc[nH]c2C(=O)N2CCc3ccccc3C2)cc1	3
CC[C@@]1(C(=O)OC)N[C@H](CN(C)C(=O)Nc2ccc(Cl)cc2)[C@@H]2C(=O)N(C)C(=O)[C@@H]21	-2
CSc1ccc(S(=O)(=O)N2CCC(C(=O)NCc3ccncc3)CC2)cc1	-22
CC(=O)c1cccc(S(=O)(=O)N2CCn3cccc3C2C)c1 (stereo not given)	-6
Cc1ccc(CNC(=O)CNC(=O)c2ccc(C(C)(C)C)cc2)n1C	-3
CCOc1cc(NCc2ccccc2)c2ncn(C(C)C)c2c1	73
COc1ccccc1N1CC(C(=O)Nc2ccc(S(=O)(=O)N3CCCC3)cc2)CC1=O (stereo not given)	-4
Cc1cc2oc(=O)cc(CN(C)Cc3ccccc3F)c2cc1Cl	3

Rewritten field by field: part of the list above
CC[C@@]1(C(=O)OC)N[C@H](CN(C)C(=O)Nc2ccc(Cl)cc2)[C@@H]2C(=O)N(C)C(=O)[C@@H]21
  Mtb betalactam = -2

CSc1ccc(S(=O)(=O)N2CCC(C(=O)NCc3ccncc3)CC2)cc1
  Mtb betalactam = -22

Some of the entries above, reformatted.
SMILES,Mtb betalactam
O=C(CSc1nc2ccccc2c(=O)n1-c1ccccc1F)NC1CCS(=O)(=O)C1 (stereo not given),1
COc1cc(S(=O)(=O)N2CCN(Cc3cccs3)CC2)ccc1NC(C)=O,-8
COc1ccccc1NC(=O)C(C)Sc1nnc2ccccn12 (stereo not given),-2
COc1cccc([C@@H]2CC=C(C(=O)O)[C@H](c3ccc(Cl)cc3)N2S(=O)(=O)c2ccc(C)cc2)c1,6
CC(=O)c1cccc(NC(=O)C(C)OC(=O)c2cccc(S(=O)(=O)N3CCN(C)CC3)c2)c1 (stereo not given),-4
COc1ccc(S(=O)(=O)N(C)C[C@H]2Oc3c(NS(=O)(=O)c4cn(C)cn4)cccc3C(=O)N([C@H](C)CO)C[C@@H]2C)cc1,3
O=C(Nc1ccccc1N1CCCCC1)c1ccc(-c2cc(Cl)ccc2Cl)o1,39
CC(C)[C@H](NC(=O)c1cccc(S(=O)(=O)N2CCOCC2)c1)C(=O)NCc1ccc(F)cc1,-10
Cc1ccc(NC(=O)c2nc[nH]c2C(=O)N2CCc3ccccc3C2)cc1,3
CC[C@@]1(C(=O)OC)N[C@H](CN(C)C(=O)Nc2ccc(Cl)cc2)[C@@H]2C(=O)N(C)C(=O)[C@@H]21,-2
CSc1ccc(S(=O)(=O)N2CCC(C(=O)NCc3ccncc3)CC2)cc1,-22
CC(=O)c1cccc(S(=O)(=O)N2CCn3cccc3C2C)c1 (stereo not given),-6
Cc1ccc(CNC(=O)CNC(=O)c2ccc(C(C)(C)C)cc2)n1C,-3
CCOc1cc(NCc2ccccc2)c2ncn(C(C)C)c2c1,73
COc1ccccc1N1CC(C(=O)Nc2ccc(S(=O)(=O)N3CCCC3)cc2)CC1=O (stereo not given),-4
